Screening results: PubChem BioAssay, several laboratories
YopH PTP inh = blocks Yersinia enterocolitica YopH tyrosine phosphatase; fluorescence Ex485/Em525; inhibition, %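 (about 10 µM by stock and volumes)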; 140,000 compounds, 0.16% hits; AID 898;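 active = inhibition of 50% or more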;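 also: controls were vehicle for no effect and minimum signal wells for full effect; inactives centre near -20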
Arbovirus anti = blocks arbovirus infection | arbovirus infection cell-based antiviral screen | inhibition, % at 10 µM | 200,000 compounds, 0.37% hits | AID 1251;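 active = inhibition from about 30%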;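 also: bluetongue infection of BSR cells; cell survival read as ATP light after 72 h; 0% = infected wells without compound and 100% = uninfected wells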
RecA splice inh = blocks M. tuberculosis RecA intein splicing. P9WHJ3. cell-free RecA intein splicing, fluorescence. inhibition, %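 (about 9 µM by stock and volumes)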. 290,000 compounds, 0.75% hits; in the data active = inhibition above about 30%; inconclusive = no clear call, values can overlap the other calls;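 also: 0% = vehicle wells and 100% = reference inhibitor control wells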
Target sequence (P9WHJ3 whole entry, looked up, canonical isoform): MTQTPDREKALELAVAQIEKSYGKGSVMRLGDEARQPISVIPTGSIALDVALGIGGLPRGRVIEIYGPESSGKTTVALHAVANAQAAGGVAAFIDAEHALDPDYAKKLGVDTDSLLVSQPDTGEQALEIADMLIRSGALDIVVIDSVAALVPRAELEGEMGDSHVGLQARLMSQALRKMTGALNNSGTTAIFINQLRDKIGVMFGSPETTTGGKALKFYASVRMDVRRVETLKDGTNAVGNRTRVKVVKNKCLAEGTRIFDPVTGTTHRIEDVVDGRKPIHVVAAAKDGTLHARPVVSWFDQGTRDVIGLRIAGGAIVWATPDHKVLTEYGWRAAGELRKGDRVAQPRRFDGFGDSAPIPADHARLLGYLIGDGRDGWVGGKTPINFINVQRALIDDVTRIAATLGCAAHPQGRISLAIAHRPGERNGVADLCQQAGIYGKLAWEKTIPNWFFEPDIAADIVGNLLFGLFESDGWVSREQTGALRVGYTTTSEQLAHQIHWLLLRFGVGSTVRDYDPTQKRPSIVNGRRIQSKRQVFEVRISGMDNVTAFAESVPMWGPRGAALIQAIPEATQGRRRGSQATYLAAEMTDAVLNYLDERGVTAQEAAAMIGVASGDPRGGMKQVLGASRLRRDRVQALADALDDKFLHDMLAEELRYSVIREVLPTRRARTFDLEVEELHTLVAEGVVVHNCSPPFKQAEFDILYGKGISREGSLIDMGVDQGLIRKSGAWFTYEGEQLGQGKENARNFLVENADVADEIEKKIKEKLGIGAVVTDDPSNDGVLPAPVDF
Mtb betalactam = beta-lactam sensitization of Mtb H37Rv | M. tuberculosis H37Rv growth with meropenem, percent inhibition; hits of this screen are not shown here | inhibition, % at 25 µM | 330,000 compounds, 0.27% hits;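 active = about 74% or more and at least 40 points above the plate without the antibiotic, then above 30% in a dose series; inconclusive = first-round hits that could not be retested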;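 also: growth measured after seven days incubation then overnight dye step; 0% = bacteria only wells and 100% = bacteria with antibiotic; twin plates without the antibiotic show which effects depend on it; some results filed as inactive read as strong as hits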
Mtb H37Rv = M. tuberculosis H37Rv growth inhibitors, H37Rv strain (AID 1626); M. tuberculosis H37Rv growth inhibition; higher % means a stronger effect; one-dose inhibition, % at 10 µM; IC50 in µM for titrated hits; 220,000 compounds, 0.95% hits;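 active = confirmed in a dose series; inconclusive = inhibition above 80% but not taken into the dose series; inactive = below 80% or under 30% at every dose of the series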;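 also: bacteria incubated seven days before Alamar blue readout; 0% = bacteria only wells and 100% = bacteria with antibiotic wells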
Arbovirus anti repeat = further read-out of Arbovirus anti, marked with its call; inhibition, %; measured here: 10K subset replicate screen; many hits read low in the repeat;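 first of two repeat runs on a subset; 0% = infected and 100% = uninfected wells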
* marks the source's active call; other numbers are inactive results; ? = inconclusive; . = not tested or not shown. These rows are one share of the data; the hit share may differ from the screen's.

Start of the data: the first three records, to show the layout:
SMILES | YopH PTP inh | Arbovirus anti | RecA splice inh | Mtb betalactam | Mtb H37Rv | others
Cc1ccc(S(=O)(=O)N2CCC(=O)N(C(COCc3ccc(Cl)cc3Cl)Cc3ccccc3)CC2)cc1 (centres undefined) | 0 | -6 | 5.0 | -7 | 3%
O=C(Cn1nnc2ccccc21)OCc1ccccc1 | . | -1 | 2.3 | 2 | 3%
CCc1nnc(NC(=O)c2ccc(NC(=O)C(C)C)cc2)s1 | . | 5 | 0.0 | -1 | 4%

The listing, from the start:
SMILES | YopH PTP inh | Arbovirus anti | RecA splice inh | Mtb betalactam | Mtb H37Rv | others
Cc1ccc(S(=O)(=O)N2CCC(=O)N(C(COCc3ccc(Cl)cc3Cl)Cc3ccccc3)CC2)cc1 (centres undefined) | 0 | -6 | 5.0 | -7 | 3%
O=C(Cn1nnc2ccccc21)OCc1ccccc1 | . | -1 | 2.3 | 2 | 3%
CCc1nnc(NC(=O)c2ccc(NC(=O)C(C)C)cc2)s1 | . | 5 | 0.0 | -1 | 4%
C=C(C)C(C)(C#CCN1CCCC1)OC(C)=O (centres undefined) | -11 | 4 | -2.0 | -4 | 5%
CCCCC1=CC2=C(c3ccco3)C(=O)C(C)(OC(=O)c3ccc(OC)cc3)C(=O)C2=CN1C(CO)CO (centres undefined) | . | . | -6.8 | 2 | -15%
S=C1NCN(CCc2ccccc2)CN1Cc1ccccc1 | . | . | -1.2 | 8 | 19%
CC(O)Cc1cn(CC(=O)N2CCNCC2)nn1 (centres undefined) | . | . | -2.3 | -10 | -4%
CCCC1=Nc2cc(C(=O)NCCCOCC)ccc2Sc2ccccc21 | -28 | -14 | -1.0 | ? | -8%
O=C(COc1ccc(Cl)cc1)NCc1nnc(SCC(=O)NCCc2ccccc2)o1 | -5 | -3 | -2.7 | 95 | 53%
CS/C(=N\S(=O)(=O)c1cccs1)Nc1ccc(Cl)cc1 | -26 | -7 | 6.9 | -2 | 0%
CCOC(=O)CSc1c(-c2ccccc2)c2cc(Cl)ccc2[nH]c1=O | -28 | 16 | 6.7 | 6 | 2%
Cc1cc(C(=O)N2CCN(c3ccc([N+](=O)[O-])cc3)CC2)c(C)o1 | . | . | 0.2 | -10 | .
Cc1ccc(S(=O)(=O)NCCOc2nc(N(C)C)nc(N(C)C)n2)cc1 | . | . | 0.2 | 3 | -1%
CC(C)OC(=O)c1cc(NC(=O)c2nn(C)cc2Br)cc(C(=O)OC(C)C)c1 | -43 | -5 | 0.0 | 2 | -3%
CC(C)(C)SCCNC(=O)COc1ccccc1 | -18 | 1 | -1.5 | 4 | 5% | Arbovirus anti repeat=-1
CN(C)c1ccc(/C=N/NC(=O)c2nnn(-c3nonc3N)c2CN2CCCCCC2)cc1 | . | . | 0.2 | -10 | .
Cn1cnnc1Sc1ccc(/C=C(\CC(=O)O)c2nc3ccccc3s2)cc1[N+](=O)[O-] | . | . | 6.2 | -6 | -9%
COc1cccc(CSc2nc3nc(C)cc(C)n3n2)c1 | . | . | -3.3 | 2 | .
CCOc1ccc(NC(=O)Nc2cc(C)ccc2OC)cc1 | -12 | -8 | 0.8 | -2 | -3%
Cc1cc(C(=O)CSc2ccc(F)cc2)cc(C)c1OC(=S)N(C)C | -23 | -4 | 4.1 | 1 | -16%

Part of the list above in order of heavy-atom count, largest number first.
SMILES | YopH PTP inh | Arbovirus anti | RecA splice inh | Mtb betalactam | Mtb H37Rv | others
CN(C)c1ccc(/C=N/NC(=O)c2nnn(-c3nonc3N)c2CN2CCCCCC2)cc1 | . | . | 0.2 | -10 | .
Cn1cnnc1Sc1ccc(/C=C(\CC(=O)O)c2nc3ccccc3s2)cc1[N+](=O)[O-] | . | . | 6.2 | -6 | -9%
CC(C)OC(=O)c1cc(NC(=O)c2nn(C)cc2Br)cc(C(=O)OC(C)C)c1 | -43 | -5 | 0.0 | 2 | -3%
Cc1ccc(S(=O)(=O)NCCOc2nc(N(C)C)nc(N(C)C)n2)cc1 | . | . | 0.2 | 3 | -1%
Cc1cc(C(=O)N2CCN(c3ccc([N+](=O)[O-])cc3)CC2)c(C)o1 | . | . | 0.2 | -10 | .
COc1cccc(CSc2nc3nc(C)cc(C)n3n2)c1 | . | . | -3.3 | 2 | .
CC(C)(C)SCCNC(=O)COc1ccccc1 | -18 | 1 | -1.5 | 4 | 5% | Arbovirus anti repeat=-1

Later entries
SMILES | YopH PTP inh | Arbovirus anti | RecA splice inh | Mtb betalactam | Mtb H37Rv | others
COc1ccc(N(CC(=O)N/N=C/c2cccc3c2OCCO3)S(=O)(=O)c2ccc(NC(C)=O)cc2)cc1 | -42 | -2 | 0.0 | -5 | -5%
O=C(NCc1cccnc1)c1ccc(S(=O)(=O)N2CCCCCC2)cc1 | . | -2 | 0.6 | -2 | -14%
O=C1NC(=O)/C(=C/c2ccccc2OCc2ccccc2)S1 | . | 7 | 14 | 7 | -7%
Cc1c(Br)cc(C(=O)N2CCN(CCO)CC2)c(C)c1C | -31 | 12 | 0.8 | -5 | -4%
CCOC(=O)C1=C(CNCCOc2ccc(OC)cc2)NC(=O)NC1c1ccc2c(c1)OCO2 (centres undefined) | . | -2 | 5.2 | 0 | 2%
N#CCSc1nc2ccccc2c(=O)n1CCC(=O)NC1CCCCC1 | 0 | -7 | -2.8 | -15 | -2%
Cc1ccc(OCC(=O)Nc2cc(C)on2)c([N+](=O)[O-])n1 | . | 9 | -2.9 | -5 | 4%
COc1ccc(-c2c(C#N)c(N)nc3c2c(=O)n(C)c(=O)n3C)cc1Cl | 3 | . | -0.5 | 13 | -1%
COC(=O)c1sccc1NC(=S)Nc1cc(C)cc(C)c1 | -15 | -9 | -1.6 | -2 | 61%
COCCCNC(=S)Nc1ccccc1C | -29 | -6 | -1.4 | 3 | 6%
COc1ccc(NC(=O)C2CC(=O)OC23CCCCC3)cc1 (centres undefined) | 6 | -4 | 0.1 | 3 | -4%
COc1ccc(OC(C)C(=O)Nc2cccc(F)c2)cc1 (centres undefined) | . | -1 | -1.3 | -4 | 10%
CC(=O)Nc1cc(C(=O)NCc2ccco2)ccc1Sc1ccc(C)cc1 | -4 | -7 | 1.8 | 6 | 0%
CCn1cc(C(=O)OCC(=O)c2ccccc2)c(=O)c2ccc(C)nc21 | . | 1 | 12 | . | -4%
O=C(CSc1nnc(NC(=O)c2ccc(F)cc2)s1)NC1CCCC1 | . | . | -0.6 | -6 | .
O=C(O/N=C(\c1ccccc1)c1ccncc1)c1ccccc1F | . | 4 | -0.3 | 4 | -2%
CN(C)C(=O)CSc1nc2ccccc2n1CC(=O)N1CCN(c2ccccc2)CC1 | -25 | -6 | 2.6 | 5 | -13%
Cc1ccc(-c2csc(NC(=O)CSc3nc4ccccc4o3)n2)cc1 | -8 | 8 | 1.4 | 81 | 65%
COC(=O)c1sc(NC(=O)/C=C/c2ccccc2Cl)nc1C | . | -4 | -4.3 | 5 | -9%
C=CCS(=O)(=O)N1CCCC(N2CCN(c3ccccc3OC)CC2)C1 (centres undefined) | . | . | 3.0 | 3 | .
CCOC(CNC(=O)C(=O)Nc1cc2c3c(c1)CCN3C(=O)CC2)OCC | . | . | -4.9 | -7 | .
COc1nc(NCCc2ccc(OC)c(OC)c2)nc(OC)n1 | -10 | 8 | . | -2 | -6%
N#C/C(=C(/O)CN1CCOCC1)c1nc(-c2ccccc2)cs1 | -44 | 3 | -6.2 | -5 | -2%
CCc1nc(SCc2ccc(OC)c(Br)c2)n[nH]1 | . | . | 1.8 | -4 | .
COc1cc(CNCc2cccs2)ccc1OCC(=O)NC(C)(C)C | -21 | 4 | -2.5 | 8 | -6%
COc1ccc(CCNC(=O)CSc2nc3ccccc3o2)cc1 | -22 | -3 | -0.7 | 100 | 96%
NCCCC[C@H]1CNC(=O)C(=O)N1CCc1cccc(F)c1 | . | . | -1.2 | 2 | 4%
Cn1cc(CNC(=O)c2cc(COc3ccc4c(c3)CCCC4)on2)cn1 | . | . | 4.2 | 5 | .
Cc1ccc(C2=NCCn3c2c2ccccc2[n+]3[O-])cc1 | . | . | -0.2 | 95 | .
COc1cc(-c2nnc(SCC(=O)c3cc(C)n(CC4CCCO4)c3C)o2)cc(OC)c1OC (centres undefined) | 12 | 5 | 2.2 | -4 | -5%
Nc1c(-c2ccc(Cl)cc2)cnn1-c1cc(C(F)(F)F)cc(C(F)(F)F)c1 | . | . | -0.5 | -10 | 7%
COc1ccccc1C(=O)NNC(=O)c1ccccc1[N+](=O)[O-] | -6 | 3 | -0.8 | -1 | 5%
CCOc1cc(/C=C2\CN(C)C/C(=C\c3ccc(O)c(OCC)c3)C2=O)ccc1O | . | . | -4.5 | 79 | .
Cc1nn(C(=O)C2CC2)c(C)c1Sc1ccc(Cl)cc1 | -2 | 16 | 12 | 69 | -1%
CCOC(=O)COc1ccc2nsnc2c1 | -44 | 8 | -0.6 | . | 2%
COCCN(C(=S)Nc1c(C)cc(C)cc1C)C(C)c1cccs1 (centres undefined) | . | -8 | 3.7 | 5 | -6%
COc1cc(OC)cc(C(=O)OCCNC(=O)Cn2cnc3c2c(=O)n(C)c(=O)n3C)c1 | . | 1 | -1.5 | 1 | 3%
COc1ccc2c(c1OC)C(=O)c1ccccc1C2=O | 0 | -3 | . | . | -7%
CCCCCCCCCCCC1=C(O)C(=O)C=C(O)C1=O | . | . | . | 3 | -6%
COc1cc([N+](=O)[O-])ccc1NC(=O)C[n+]1ccccc1C | -10 | -3 | -5.3 | -5 | 0%
CC1CCN(C(=O)Cn2nnc(-c3ccccc3)n2)CC1 | . | . | -1.1 | 4 | .
O=C(CN1C(=O)c2ccccc2S1(=O)=O)N1CCN(c2ccc(F)cc2)CC1 | -12 | 1 | 0.3 | 0 | -8%
O=C(O)COc1ccc(-c2nccc(-c3cccs3)n2)cc1 | -9 | -2 | 1.0 | 1 | .
Cc1ccc(NC(=O)CCC(=O)NNS(=O)(=O)c2ccc(Cl)cc2)cc1C | . | . | -2.6 | 4 | .
CC1(C)C(=O)C=C[C@]2(C)[C@H]3CC[C@@]4(C)[C@H](c5ccoc5)OC(=O)[C@H]5O[C@]54[C@]3(C)[C@H](O)C[C@@H]12 | -15 | 1 | 25 | 42 | .
O=C(NCC1CCCO1)c1ccc(-c2cccc(C(F)(F)F)c2)o1 (centres undefined) | . | . | 3.0 | 5 | .
Cn1c(SCc2cc(=O)[nH]c3ccccc23)nnc1-c1ccc(Br)cc1 | -25 | -6 | . | 4 | -10%
O=C(CN1C(=O)NC2(CCCC2)C1=O)Nc1ccc(F)c(F)c1F | -1 | -6 | -0.7 | -3 | -14%
Cc1noc(C)c1C(=O)NCc1cccs1 | -32 | 5 | -1.5 | -12 | -9%
Cn1c(=O)[nH]c(=O)c2c1nc(SCCC(=O)O)n2Cc1cccc(Br)c1 | . | . | 0.4 | -14 | .
(next part)
SMILES | YopH PTP inh | Arbovirus anti | RecA splice inh | Mtb betalactam | Mtb H37Rv | others
COC(=O)C(=C/C(C)=C/c1cccnc1)C(=O)OC | . | 4 | 3.0 | 5 | -1%
COc1ccc(-c2csc(Cc3nnc4n3CCCCC4)n2)cc1 | -39 | 17 | 0.2 | 27 | -19%
Cc1cc(C)c(S(=O)(=O)N2CCCC(C(=O)N3CCOCC3)C2)c(C)c1 (centres undefined) | . | . | 1.7 | -6 | .
CSCCC(NC(=O)c1ccco1)C(=O)Nc1cc(C)ccn1 (centres undefined) | . | . | -0.6 | -3 | .
Cc1ccc(S(=O)(=O)N(C)C)cc1NC(=O)Nc1ccccc1 | . | . | -0.2 | -13 | -2%
Cn1c(=O)oc2cc(S(=O)(=O)N3CCC4(CC3)OCCO4)ccc21 | -47 | -2 | -0.3 | -5 | -6%
Cc1ccc(S(=O)(=O)N2CCCC(C(=O)NCc3ccccc3F)C2)cc1 (centres undefined) | . | . | 2.1 | 0 | .
COC(=O)c1c(C)[nH]c(C(=O)OCC(=O)N(CC(C)C)c2c(N)n(Cc3ccccc3)c(=O)[nH]c2=O)c1C | . | . | -11 | -5 | .
CCOC(=O)CSc1nnc(Cn2nnc3ccccc32)n1-c1ccc(F)cc1 | . | . | 2.0 | 5 | -3%
COc1ccc(NC(=O)c2cccs2)c([N+](=O)[O-])c1 | -26 | -12 | -1.6 | 5 | -10%
Cc1cc(C)n(/N=C/c2ccco2)c(=O)c1C#N | -19 | 6 | -0.3 | 4 | -9%
CC12CN(C(=S)Nc3ccccc3)CC(C)(CN(C(=S)Nc3ccccc3)C1)C2=O | . | 3 | -1.0 | -5 | -4%
CC(C)c1ccc(NC(=O)C2CCN(S(C)(=O)=O)CC2)cc1 | -32 | -6 | -0.8 | 3 | -3%
